Six1-Eya2 blk: inhibitors of human Six1/Eya2 interaction | hit rate 0.56% among 360,000 | Q15475+O00167 | AlphaScreen GST-Six1/His-Eya2 binding, biochemical; hits give low values; control for the full effect not named in the record | activity change, % (no concentration beside the values); in the data active = activity change below about -65%; inconclusive = about -30% to -65%; inactive = above about -30%; note: % is set by controls: 0 for no effect and ±100 for the full control effect; compound concentration not given in the record
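Compounds are tested against tagged Six1 and Eya2 proteins bridged by glutathione donor and nickel acceptor beads; after a one-hour incubation at 37 °C without light, AlphaScreen emission is recorded.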
D2 ag: human D2 receptor agonism in beta-arrestin assay. P14416. DiscoveRx PathHunter D2 beta-arrestin, luminescence, 90 min; 100% = 57 uM dopamine signal. activation, % (no concentration beside the values). hit rate 0.084% among 360,000; in the data active = activation above about 40%; inconclusive = about 15% to 40%; inactive = below about 15%; note: compound concentration not given in the record; the text of the record calls up to 30% inactive
Target sequence (P14416 whole entry, looked up): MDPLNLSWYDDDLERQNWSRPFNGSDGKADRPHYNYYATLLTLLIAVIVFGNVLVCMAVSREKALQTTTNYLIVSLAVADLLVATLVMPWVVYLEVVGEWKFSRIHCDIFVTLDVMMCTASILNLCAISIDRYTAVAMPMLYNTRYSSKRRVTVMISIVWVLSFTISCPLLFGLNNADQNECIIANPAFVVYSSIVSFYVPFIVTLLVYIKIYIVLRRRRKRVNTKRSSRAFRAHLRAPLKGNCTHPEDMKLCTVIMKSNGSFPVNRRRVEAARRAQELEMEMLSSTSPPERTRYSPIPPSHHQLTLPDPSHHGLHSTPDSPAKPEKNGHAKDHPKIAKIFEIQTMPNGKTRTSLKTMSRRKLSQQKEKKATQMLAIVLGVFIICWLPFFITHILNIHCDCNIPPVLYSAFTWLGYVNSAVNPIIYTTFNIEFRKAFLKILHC
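DiscoveRx PathHunter D2 beta-arrestin cells (2,100/well) attached overnight, then compound-stimulated 90 min at 37 C in HBSS/10 mM HEPES/0.1% Tween-20 buffer; beta-galactosidase complementation read by luminescence after 1 h at ambient temperature. Dopamine 57 uM final (EC100) as control.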
gsp antag: antagonizes gsp, the McCune-Albright syndrome mutation. hit rate 0.4% among 340,000. gsp-mutant cells, cAMP HTRF, 30 min; control for the full effect not named in the record. Potency, µM (doses to about 76.9 µM), for the others: top-dose activity change, negative = inhibition, hits mostly inhibitors; active = falling curve of any shape with a large fitted effect; inconclusive = falling curve, mostly with a smaller effect; inactive = flat or rising curve; cell line not stated here;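 note: intracellular cAMP measured with PDE inhibitor Ro 20-1724 present during compound exposure; potency is the fitted concentration of half-maximal effect; % is set by controls: 0 for no effect and ±100 for the full control effect; nearly all actives have a fitted effect of over 65% in size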
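Measurement of cellular cAMP by homogeneous time-resolved fluorescence following a 30 min compound exposure at 37C. The PDE inhibitor […] was present throughout; the assay buffer was DPBS with 0.05% BSA and 0.005% Tween 20.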
CtBP-E1A inh: blocks the CtBP interaction with E1A; AlphaScreen GST-E1A/His-CtBP binding, 1536-well; hits give low values; control for the full effect not named in the record; activity change, % (no concentration beside the values); hit rate 0.49% among 340,000; AID 651724; in the data active means activity change below about -65%; inconclusive means about -30% to -65%; inactive means above about -30%; note: % is set by controls: 0 for no effect and ±100 for the full control effect; compound concentration not given in the record
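AlphaScreen with 125 nM GST-E1A and 125 nM His-CtBP (5X stocks) in Tris pH 8.0, 300 mM NaCl, BSA, Tween 20, TCEP. Compounds preincubated 2 h at 37 deg C, then glutathione donor/nickel acceptor beads added for 1 h at 37 deg C in dark.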
D2 potentiator: potentiates the human D2 dopamine receptor allosterically; hit rate 0.23% among 360,000; P14416; potentiation, % (test concentration not listed); AID 624464; DiscoveRx D2 beta-arrestin cells, luminescence, 90 min; 100% = 57 uM dopamine signal; active = potentiation of 50% or more; inconclusive = 30% to 50%; inactive = 30% or less;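 note: compound concentration not given in the record; tested on top of an EC20 dose of dopamine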
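D2 cells co-treated with compound plus 50 nM dopamine (EC20) for 90 min at 37 deg C to detect potentiation. Beta-arrestin recruitment was read as enzyme-fragment luminescence after 1 h at ambient temperature. Full response was set by 57 uM dopamine.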
gsp agonist: activates gsp, the McCune-Albright syndrome mutation; gsp mutant cells, cAMP HTRF, 30 min; control for the full effect not named in the record; Potency, µM (doses to about 76.9 µM), without a hit: at the highest dose activation (cAMP increase), hits mostly activators; hit rate 0.13% among 340,000; active = well fitted activation curve with a large enough effect; inconclusive = small, poorly fitted or top-dose-only effect, or another doubt; inactive = no such curve, though single readings can be large or run the other way; cell line not stated here;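 note: phosphodiesterase inhibitor Ro 20-1724 added with compounds to block cAMP breakdown; potency is the fitted concentration of half-maximal effect; nearly all actives have a fitted effect of over 60% in size; about a fifth of the inactives were tested at one dose only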
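Cells in DMEM/10% FBS with G418 were pretreated with compounds in DMSO plus […] (300 uM stock) for 30 min at 37C. cAMP was measured by HTRF (cAMP-d2 plus anti-cAMP antibody-K) after 30 min at room temperature.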
The depositor's hits bear a star; u = inconclusive; x = not tested or not shown; [ ] = dose if it differs, or a comment. An unsorted share of the library, and some 1.4% of all compounds hit somewhere here.

SMILES	Six1-Eya2 blk	D2 ag	gsp antag	CtBP-E1A inh	D2 potentiator	gsp agonist
CCOC(=O)c1c(C)[nH]c(C(=O)OCC(=O)N(CC(C)C)c2c(N)n(Cc3ccccc3)c(=O)[nH]c2=O)c1C	-15	-3.9	0%	1	4	-43%[inhibitor]
Cc1cc(C)cc(C(=O)Nc2nc3ccccc3[nH]2)c1	-7	1.5	-5%	0	-6	13%
O=C(CCSc1ccccn1)Nc1ccc(Br)cc1	4	-5.6	9%	0	-9	-10%[15.4 µM]
CC(C)(O)C#Cc1ccc(CN2CCN(C3CCCCC3)C(CCO)C2)cc1 (stereo not given)	2	1.8	20%	3	-2	u
CC(=O)Nc1ccc(NC(=O)c2c(-c3ccccc3Cl)noc2C)cc1	-4	-0.1	-31%	2	1	19%[15.4 µM]
CCC(C(=O)O)N1C(=O)C2CCCCC2C1=O (stereo not given)	3	-5.6	-2%	-5	-5	12%
CN1C(=O)c2ccc(NC(=O)c3ccc(N4CCCCC4)c([N+](=O)[O-])c3)cc2C1=O	1	-1.4	-8%	4	6	-40%[inhibitor]
Cn1c2ccccc2c2c(C(=O)N3CCN(c4ccccn4)CC3)cn(C3CCCC3)c(=O)c21	-18	-0.4	31%	-16	-22	-25%
Cn1c(=O)c2cc(NC(=O)NCc3ccc(F)cc3)ccc2n1C/C=C/c1ccccc1	-3	13	x	1	-10	x
COc1ccc(-c2csc(NC(=O)C3CC(=O)N(Cc4ccccc4)C3)n2)cc1OC (stereo not given)	-27	6.4	-24%	-26	-5	2%[15.4 µM]
COc1ccc(NC(=O)COC(=O)C2CCN(C(=O)c3ccc(Cl)cc3)CC2)c([N+](=O)[O-])c1	-15	8.6	-20%	-17	4	-19%
CC(C)CCN1C(=O)CCC1(C)C(=O)NC1CCCCCC1 (stereo not given)	2	2.3	2%	5	-4	-10%
Cc1c(C2(O)CCCCC2)[nH]c2ccc(C(F)(F)F)cc12	-5	0.9	u	-2	-8	x
CSc1ccccc1NC(=O)Cn1c(-c2cscn2)nc2ccccc21	-3	-1.7	-2%	-8	-14	-1%
CCN(c1c(C)n(C)n(-c2ccccc2)c1=O)S(C)(=O)=O	0	0.3	11%	4	-6	2%
Nc1c(N(Cc2ccco2)C(=O)c2ccc(Br)cc2)c(=O)[nH]c(=O)n1Cc1ccccc1	1	-2.3	1%	-14	-1	25%
COc1ccc(C(C)(O)c2nc(-c3cncnc3)cs2)cc1 (stereo not given)	-1	-4.6	x	2	-4	x
COc1ccc(C(=O)N/N=C(\C)c2ccccn2)cc1OC	-89*	-4.1	5%	-93*	-17	1%[15.4 µM]
COc1ccc(OCC(=O)OCC(=O)N2C(C)CCCC2C)cc1 (stereo not given)	6	0.5	4%	-1	-1	-11%
Cc1ccccc1OCC(=O)N/N=C/c1cccc(Oc2ccc([N+](=O)[O-])cc2[N+](=O)[O-])c1	-22	12	-6%	3	55*	7%
CCOc1cc(C(=O)N(C)CC(=O)Nc2cccc3ccccc23)ccc1OC	1	9.7	0%	2	-6	-3%
O=C(COC(=O)Cc1ccccc1F)NCCc1ccccc1	7	-2.7	-2%	1	0	-30%
Cc1nc(SCC(=O)N2CC(=O)Nc3ccccc32)nc(C)c1C	1	-5.7	7%	4	-4	u
Cc1csc(Nc2cccc3ccccc23)n1	-14	-2.3	0%	-16	-2	7%[15.4 µM]
Fc1cccc(Cl)c1CSc1nnc(-c2ccncc2)o1	-7	5.2	3%	-3	-6	u

3 structures already listed, arranged by heavy-atom count, lowest first:
SMILES	Six1-Eya2 blk	D2 ag	gsp antag	CtBP-E1A inh	D2 potentiator	gsp agonist
CSc1ccccc1NC(=O)Cn1c(-c2cscn2)nc2ccccc21	-3	-1.7	-2%	-8	-14	-1%
Cn1c2ccccc2c2c(C(=O)N3CCN(c4ccccn4)CC3)cn(C3CCCC3)c(=O)c21	-18	-0.4	31%	-16	-22	-25%
CCOC(=O)c1c(C)[nH]c(C(=O)OCC(=O)N(CC(C)C)c2c(N)n(Cc3ccccc3)c(=O)[nH]c2=O)c1C	-15	-3.9	0%	1	4	-43%[inhibitor]

Retrieved one by one from the entries so far (four):
SMILES	Six1-Eya2 blk	D2 ag	gsp antag	CtBP-E1A inh	D2 potentiator	gsp agonist
CC(C)(O)C#Cc1ccc(CN2CCN(C3CCCCC3)C(CCO)C2)cc1 (stereo not given)	2	1.8	20%	3	-2	u
CN1C(=O)c2ccc(NC(=O)c3ccc(N4CCCCC4)c([N+](=O)[O-])c3)cc2C1=O	1	-1.4	-8%	4	6	-40%[inhibitor]
COc1ccc(NC(=O)COC(=O)C2CCN(C(=O)c3ccc(Cl)cc3)CC2)c([N+](=O)[O-])c1	-15	8.6	-20%	-17	4	-19%
COc1ccc(OCC(=O)OCC(=O)N2C(C)CCCC2C)cc1 (stereo not given)	6	0.5	4%	-1	-1	-11%

The main list resumes, starting 3 compounds before the break.
SMILES	Six1-Eya2 blk	D2 ag	gsp antag	CtBP-E1A inh	D2 potentiator	gsp agonist
Cc1nc(SCC(=O)N2CC(=O)Nc3ccccc32)nc(C)c1C	1	-5.7	7%	4	-4	u
Cc1csc(Nc2cccc3ccccc23)n1	-14	-2.3	0%	-16	-2	7%[15.4 µM]
Fc1cccc(Cl)c1CSc1nnc(-c2ccncc2)o1	-7	5.2	3%	-3	-6	u
CC(C)Cc1nnc(NC(=O)CCC(=O)N2CCN(c3ccc(F)cc3)CC2)s1	0	4.0	-12%	0	-2	u
C[C@H](CO)N1C[C@H](C)[C@@H](CN(C)C(=O)Nc2ccccc2)Oc2c(NC(=O)Cc3ccccc3)cccc2C1=O	-6	-1.6	-21%	2	-11	x
COc1ccccc1N1CCN(C(=O)COc2cc(C)ccc2C)CC1	-4	-1.1	-7%	-7	-15	-27%
O=C(CN(Cc1ccccc1Cl)C(=O)CNS(=O)(=O)c1ccccc1)NCC1CCCO1 (stereo not given)	1	-6.2	1%	5	-5	11%[15.4 µM]
CNS(=O)(=O)c1cccc(C(=O)OCC(=O)Nc2sc3c(c2C#N)CCCCC3)c1	1	0.1	-19%	-7	-7	15%[15.4 µM]
COc1cc(NC(=O)c2nn(C)c3c2CS(=O)(=O)c2ccccc2-3)cc(OC)c1	0	3.3	-13%	x	-4	16%
O=C(CSc1ncnc2c1nnn2Cc1ccc(F)cc1)NC1CCCCC1	7	-2.4	-4%	6	-6	u
COc1cc(Br)cc(C(=O)N2CCc3ccccc32)c1OC	0	-1.7	x	7	4	-31%[inhibitor]
COC(=O)c1ccc(Nc2nc3ccc(C)cc3n3cnnc23)cc1	6	-0.2	-1%	1	-2	-21%[15.4 µM]
O=C(COC(=O)c1nsc(Cl)c1Cl)NC1CCCCC1	6	0.5	2%	5	-1	-18%
CCc1ccc(NC(=O)Nn2cnnc2)cc1	3	-0.8	8%	2	-5	-3%
CCOC(=O)CC1CCCCN1Cc1nc(-c2ccc(F)c(OC)c2)oc1C (stereo not given)	-5	-2.5	-5%	-1	-15	-13%
Cc1[nH]c(=O)[nH]c(=O)c1/C=C/C(=O)OCC(C)C	11	2.5	6%	2	-15	-23%
Cn1c(SCC(=O)c2ccc(F)cc2)nnc1-c1ccccn1	4	-5.6	0%	3	-3	12%[15.4 µM]
Nc1c(Cl)ncnc1Nc1ccc(C(=O)O)cc1	6	-2.5	3%	-13	-4	-15%
Clc1cccc(CN2CCC(Cc3ccccc3)CC2)c1	10	-2.1	3%	10	-16	4%
CC1CCCCC1NC(=O)Cn1cnc2sccc2c1=O (stereo not given)	11	-0.8	-4%	7	-1	23%[15.4 µM]
COc1ccc(N(CCN2C(=O)c3ccccc3C2=O)C(=O)c2cccc([N+](=O)[O-])c2)cc1	-12	-1.7	-34%	-12	-1	u
COc1ccc(Cl)cc1S(=O)(=O)N1CCCC(C(=O)NCc2ccccc2)C1 (stereo not given)	1	-2.7	-12%	10	-14	-17%
O=C(COC(=O)c1cc(=O)c2ccccc2o1)NC1CCCCC1	1	0.3	-16%	-4	-4	11%[15.4 µM]
O=C(CN1C(=O)C2CC=CCC2C1=O)N1CCN(c2ccc([N+](=O)[O-])cc2)CC1 (stereo not given)	-1	-1.1	-14%	6	-2	-5%[15.4 µM]
Cc1ccc(N2C(=O)C(Cl)=C(NCCO)C2=O)c(C)c1	1	-3.6	-2%	0	-9	u
CCOC(=O)c1c(C)[nH]c(C(=O)COC(=O)[C@H](C)N2C(=O)C3CCCCC3C2=O)c1C (stereo not given in full)	2	14	-25%	4	28	2%
O=C(C[C@@H]1C/C=C\C[C@H](NC(=O)OCC2c3ccccc3-c3ccccc32)C(=O)O[C@H](c2ccccc2)CNC1=O)NCCO	-12	-2.8	-9%	-11	-17	x
COCCN(Cc1nnc(-c2cccs2)o1)C(=O)c1cccc(S(=O)(=O)N2CCOCC2)c1	2	-1.7	2%	10	-1	u
SMILES	Six1-Eya2 blk	D2 ag	gsp antag	CtBP-E1A inh	D2 potentiator	gsp agonist
CCc1nc(SCC(=O)N2c3ccccc3Sc3ccccc32)c2ccccc2n1	0	-1.7	-8%	6	5	15%
CCOC(=O)C1=C(C)NC(=O)NC1C1CC=CCC1 (stereo not given)	6	-0.3	11%	3	-3	5%
CC(C)Cc1ccc(/C(=N/O)C(=O)O)s1	13	-1.5	3%	8	-4	-6%
Cc1cccc(NC(=S)N2CCN(S(C)(=O)=O)CC2)c1	-2	-4.1	8%	9	11	-3%
Cc1cccc(C)c1-n1c(SCC(=O)Nc2ccc(C(=O)O)cc2)nnc1-c1cccc(S(=O)(=O)N(C)C)c1	1	-0.1	-7%	8	-7	-1%
Cc1c(-n2cc(C(=O)c3ccccc3O)cc(C#N)c2=O)c(=O)n(-c2ccccc2)n1C	4	-4.5	-3%	-3	-12	2%
Nc1nc(CCl)nc(N(c2ccccc2)c2ccccc2)n1	5	-2.1	12%	0	-2	23%[15.4 µM]
O=C(CC(C(=O)c1ccccc1)c1ccccc1)c1ccccc1 (stereo not given)	17	2.2	-28%	29	17	-6%
O=C(NC(=S)N1CCN(c2ccc([N+](=O)[O-])cc2)CC1)c1ccco1	-3	0.1	-15%	6	-3	-1%
COc1ccc(/C=N/NS(=O)(=O)c2ccc(F)cc2)cc1COc1cc(F)ccc1[N+](=O)[O-]	-4	3.6	u	10	2	20%
O=C(COc1ccc(Cl)cc1Cl)Nc1cccnc1	11	-1.8	-4%	-11	-1	-2%
Nn1c(SCc2cc([N+](=O)[O-])cc3c2OCOC3)nnc1-c1cccnc1	-3	-3.0	17%	0	-10	-1%[15.4 µM]
CN(C(=O)CSc1nnc(Nc2ccccc2)s1)c1c(N)n(Cc2ccccc2)c(=O)[nH]c1=O	-15	0.4	1%	-8	13	-25%
